# Compound activity deposited in PubChem BioAssay by National Center for Advancing Translational Sciences (NCATS).
# Vaccinia mCherry = qHTS for Stage-Specific Inhibitors of Vaccinia Orthopoxvirus: mCherry Reporter Primary qHTS; Potency, µM (doses to about 36.5 µM), without a hit: at the top dose activity change, negative = inhibition, most hits filed as inhibitors; hit rate 0.63% among 310,000; AID 720579, 2013; Vaccinia virus mCherry reporter infection, fluorescence; about a quarter of the inactives have no number; active = well fitted inhibition curve with a large enough effect; inconclusive = small, poorly fitted or top-dose-only effect; inactive = no such curve, though single readings can be large or run the other way; tested in A549 cells; also: nearly all actives have a fitted effect of over 35% in size; inactives centre near -10
# Vaccinia Venus = qHTS for Stage-Specific Inhibitors of Vaccinia Orthopoxvirus: Venus Reporter Primary qHTS. Vaccinia virus Venus reporter expression, fluorescence. Potency, µM (series often up to 36.5 µM), inactives show at the highest dose activity change, negative = inhibition, actives largely listed as inhibitors. hit rate 0.46% among 330,000. AID 720580, 2013; active means well fitted inhibition curve with a large enough effect; inconclusive means small, poorly fitted or top-dose-only effect; inactive means no such curve, though single readings can be large or run the other way; tested in A549 cells; also: nearly all actives have a fitted effect of over 30% in size; inactives centre near -10
# * = called active by the depositor; i = inactive; u = inconclusive; x = no result given; & = joins results of further samples; [ ] = remark or other dose. % is scaled to controls: 0 for no effect and ±100 for the full control effect; potency is read from the fitted curve at half-maximal effect.
# Sequence of screens – Vaccinia mCherry	Vaccinia Venus
- Cc1nc(Cl)c(S(N)(=O)=O)c(C)c1Cl
    i	-11.1%
- CCCc1cc(=O)[nH]c(SC(CC)C(=O)Nc2ccccc2C#N)n1 (stereo not drawn)
    x	-5.3%
- CC(C)c1ccccc1NC(=O)C(Cc1c[nH]c2ccccc12)NC(=O)OC(C)(C)C (stereo not drawn)
    -7.8%	-13.2%
- CCOc1ccc(NC(=O)c2cc(S(=O)(=O)N3CCCC3)c[nH]2)cc1
    -11.6%	-15.9%
- CC(C)CN1CCN(Cc2ccc(CN3CCCCC3)s2)CC1CCO (stereo not drawn)
    -11.0%	-18.3%
- Fc1ccc(CSc2ccc(-c3cccs3)nn2)cc1
    -12.6%	2.0%
- CCOc1ccccc1NC(=O)c1cc2c(=O)oc3ccccc3c2s1
    -10.3%	-2.3%
- CC(=O)Nc1ccc(S(=O)(=O)N2CCC(N3CCCCC3)CC2)cc1
    -11.8%	-2.6%
- C[C@H](CO)N1C[C@H](C)[C@@H](CN(C)CC2CCCCC2)Oc2ccc(NC(=O)CCN3CCOCC3)cc2C1=O
    i	-6.6%
- O=C(NCc1cccc(Cl)c1)c1ccc(-n2cncn2)c2ccoc12
    21.4%	-7.2%
- COc1ccc(/C=C2\SC(=S)N(CCCC(=O)Nc3ccc(C(=O)O)cc3)C2=O)cc1OC
    i	-11.2%
- O=C(CSc1ncnc2c1oc1ccccc12)Nc1nccs1
    -13.2%	-2.1%
- O=C(NCc1ccco1)C1CC(c2ccc(Cl)cc2)=NO1 (stereo not drawn)
    -8.9%	0.0%
- COC(=O)c1cc(NC(=O)CSc2ncn[nH]2)ccc1Cl
    u	-10.8%
- CC1CC(C)CN(C(=O)CSc2ncnc3sccc23)C1 (stereo not drawn)
    -2.8%	-10.0%
- O=C(NCc1ccco1)c1ccc(CS(=O)Cc2cccc(Cl)c2)o1 (stereo not drawn)
    -8.1%	-2.7%
- CC(C)CN(C(=O)c1cccc(Cl)c1)c1c(N)n(CC(C)C)c(=O)[nH]c1=O
    -7.7%	-4.3%
- O=C(COC(=O)c1ccccc1)Nc1ccccc1N1CCOCC1
    x	-13.3%
- O=C(Nc1ccccc1Br)C1CC(=O)N(c2ccc3c4c(cccc24)CC3)C1 (stereo not drawn)
    -13.4%	-0.4%
- Cc1cc2cc(CCNC(=O)c3ccc(S(=O)(=O)N4CCOCC4)cc3)c(=O)[nH]c2cc1C
    x	-17.9%
- CCc1nnc(SCc2nc(-c3ccccc3Cl)oc2C)c2cc3sc(C)cc3n12
    -19.1%	-10.3%
- CCCS(=O)(=O)N1CCCC(C(=O)N2CCN(C(=O)OCC)CC2)C1 (stereo not drawn)
    -3.8%	3.8%
- Clc1ccccc1-c1nc(-c2ccncc2)no1
    -16.8%&-8.4%	-12.6%&-17.0%
- COc1ccccc1N(CC(=O)NC1CCCC1)C(=O)c1cnn(C(C)C)c1
    -7.0%	-8.6%
- COc1c(C)cc(C(=O)C2CCCN(C(=O)c3snnc3C)C2)cc1C (stereo not drawn)
    i	1.1%
- Cc1ccc(N(C(=O)c2cccc(C)c2)S(=O)(=O)c2ccc(Cl)cc2)cc1
    -15.1%	-7.5%
- CCOC(=O)c1[nH]c(C)c(CCC(=O)NC(C)c2ccccc2)c1C (stereo not drawn)
    -9.6%	-14.3%
- COc1ccc(C(=O)CC(c2ccccc2)C2C(=O)CCCC2=O)cc1 (stereo not drawn)
    -6.8%	1.3%
- CCc1noc(C)c1C(=O)Nc1nc2ccc(S(C)(=O)=O)cc2s1
    -0.1%	0.1%
- COc1ccc(C(=O)N/N=C(\C)CC(=O)Nc2ccc(N(C)C)cc2)c(OC)c1
    -9.8%	-27.6%
- CCN(CC)c1ccc(NC(=O)c2nc3nc(C)cc(C(F)F)n3n2)cc1
    i	-11.2%
- CC1=NN2C(=N)/C(=C\c3cc(C)n(-c4cccc(C)c4)c3C)C(=O)N=C2S1
    -3.6%	-6.9%
- N#C/C(=C\c1ccc(OCc2ccc(Cl)cc2)cc1)C(=O)Nc1cccc(C(=O)O)c1
    -12.0%	-0.4%
- CC(=O)Cc1nsc(NC(=O)c2ccc(-c3ccc(Cl)c(C(F)(F)F)c3)o2)n1
    -14.4%	-14.3%
- COc1ccc(C(=O)NCc2ccc3c(c2)CCN3C(=O)c2cccc(C)c2)cc1OC
    -11.2%	-6.9%
- Cc1ccc(NC(=O)CN2C(=O)CSc3ccc(S(=O)(=O)N4CCCCC4)cc32)cc1
    -4.5%	-23.9%
- Fc1ccc(-c2nnc(CSc3nnc(-c4cccs4)o3)o2)cc1
    u	u
- COc1ccc(/C=C/c2cnccn2)cc1OC
    21.9%	-12.8%
- CCCCOc1ccc(C2(C)CC(=O)NC2=O)cc1 (stereo not drawn)
    x	-14.3%
- O=C(CSc1ncccc1C(=O)O)NCCC1=CCCCC1
    i	-7.0%
- Cc1nn(-c2ccccc2)nc1CNC(=O)C(C)Cc1ccccc1 (stereo not drawn)
    5.0%	-10.7%
- Cc1nn(C)cc1S(=O)(=O)NC1CCCC1
    3.8%	-2.6%
- C[C@@H]1CN([C@H](C)CO)C(=O)CCCn2cc(nn2)CO[C@H]1CN(C)C(=O)Nc1ccc(-c2cccs2)cc1
    -7.6%	-11.2%
- COc1ccc(/C=N/OCC(=O)OCC(=O)N(C)c2ccccc2)cc1
    -14.7%	-6.4%
- O=C(COC(=O)[C@H](Cc1ccccc1)NC(=O)c1cccs1)Nc1cc(F)ccc1F
    -8.7%	-2.9%
- C=C(C)CSc1nc2c(c(=O)[nH]c(=O)n2C)n1CCC(C)C
    -4.3%	-11.1%
- Cc1nc(N)sc1-c1ccccc1
    -26.8%	-18.0%
- Cc1ccc(/C=C/c2onc(C)c2S(=O)(=O)N2CCC(C(=O)NCc3ccc(Cl)cc3)CC2)cc1
    -24.3%	-17.0%
- COc1ccc(C2C3=C(CC(c4ccco4)CC3=O)Nc3ccccc3N2C(C)=O)cc1 (stereo not drawn)
    x	-1.2%
- O=C(Nc1ccc2nc(SCCOc3ccccc3Cl)sc2c1)c1ccc2c(c1)OCO2
    -0.8%	-23.6%

# (more compounds)
# Sequence of screens – Vaccinia mCherry	Vaccinia Venus
- COc1ccc(C(=O)N/N=C(\C)CC(=O)Nc2cccc(C(F)(F)F)c2)cc1
    i	-26.0%
- CC[C@@]1(C(=O)OC)N[C@H](CN(C)S(=O)(=O)c2ccc(OC(F)(F)F)cc2)[C@@H]2C(=O)N(C)C(=O)[C@@H]21
    -12.9%	-10.8%
- CCCN1CCC2(CC1)C(C#N)=C(N)Oc1c2sc2nc(C)cc(C)c12
    x	19.7%
- C[C@H]1CN([C@@H](C)CO)C(=O)Cc2cc(NC(=O)Cc3ccccc3)ccc2O[C@H]1CN(C)C(=O)Nc1cccc2ccccc12
    -4.1%	-18.3%
- COc1ccccc1NC(=O)Nc1nc(CC(=O)N2CCN(c3ccc(F)cc3)CC2)cs1
    u	-28.4%
- O=C(CNc1cccc(S(=O)(=O)N2CCCC2)c1)Nc1cccc(C(F)(F)F)c1
    -19.5%	-28.1%
- O=C(NC(Cc1cccc(F)c1)C(=O)O)C1CCCCC1 (stereo not drawn)
    -10.6%	4.7%
- NS(=O)(=O)c1ccc(CCNC(=O)CSc2nc3c(sc(=S)n3-c3ccccc3)c(=O)[nH]2)cc1
    u	-12.6%
- COc1ccc(Cc2nnc(NS(=O)(=O)c3ccccc3)s2)cc1
    -5.9%	-7.2%
- CCC(C)n1c(C)cc(C(N)=O)c1C (stereo not drawn)
    -27.4%	-24.5%

# Entries of single compounds from above.
# COc1ccc(/C=C/c2cnccn2)cc1OC is listed as Vaccinia mCherry: 21.9%; Vaccinia Venus: -12.8%
# COc1ccc(/C=C2\SC(=S)N(CCCC(=O)Nc3ccc(C(=O)O)cc3)C2=O)cc1OC is listed as Vaccinia mCherry: i; Vaccinia Venus: -11.2%

# The results go on:
# Sequence of screens – Vaccinia mCherry	Vaccinia Venus
- COc1cccc(N2CC(C(=O)Nc3nnc(SCc4ccccn4)s3)CC2=O)c1 (stereo not drawn)
    i	-4.5%
- CCC1CN(C(=O)Nc2ccc(C)c(F)c2)c2ccccc2S1 (stereo not drawn)
    -5.8%	5.9%
- COc1ccc(C(C#N)CC(=O)c2ccc(OCc3ccccc3)c(OC)c2)cc1OC (stereo not drawn)
    u	-21.0%
- COC(=O)c1ccc(CSc2nc3c([nH]c4ccccc43)c(=O)n2-c2cc(C)cc(C)c2)o1
    -21.3%	-19.1%
- O=C(NCC(c1cccnc1)N1CCOCC1)Nc1ccccc1 (stereo not drawn)
    -13.1%	-12.0%
- Cc1ccc2c(c1)N(C(=O)CCC(=O)NCc1cccc(F)c1)CC(C)O2 (stereo not drawn)
    -3.5%	-8.3%
- COC(=O)c1c(C)[nH]c(C(=O)CN2C(=O)C3CC=CCC3C2=O)c1C (stereo not drawn)
    -7.5%	-25.1%
- Cc1c(NC(=O)C2CCN(S(=O)(=O)c3ccccc3)CC2)c(=O)n(-c2ccccc2)n1C
    x	-21.6%
- CN(C)c1ccc(CNC(=O)CN(C)S(=O)(=O)c2cccc3cccnc23)cc1
    i	-4.7%
- COc1ccc(C2N=C(N)Nc3nc4ccccc4n32)c(OC)c1OC (stereo not drawn)
    -3.5%	-9.1%
- CCNc1ccc(-c2nc(-c3ccccn3)no2)cc1[N+](=O)[O-]
    -10.1%	-2.4%
- COc1ccc(C2CC(=O)c3cnc(NC(=O)c4ccccc4)nc3C2)cc1OC (stereo not drawn)
    -17.1%	-16.3%
- COc1ccc(C2=NOC(CNC(N)=S)C2)cc1 (stereo not drawn)
    -12.1%	-6.5%
- O=C(NC1CCCC1)C(c1cccs1)N(C(=O)c1ccco1)c1ccc2c(c1)OCCO2 (stereo not drawn)
    x	-14.4%
- COc1ccc([C@H]2C[C@H](n3cc(-c4ccc(F)cc4)nn3)[C@@H](O)CN2Cc2cccs2)cc1
    8.0%	-9.7%
- CCOC(=O)/C(C#N)=C/Nc1ccsc1C(=O)OC
    -0.2%	-12.0%
- COc1cc(OC)c2c(=O)c(OC)c(-c3ccc(OC)c(OC)c3)oc2c1
    -12.8%	0.0%&-13.4%
- O=C(Cc1ccc(Cl)cc1)NCCS(=O)(=O)N1CCN(c2ccccc2F)CC1
    -10.4%	u
- COc1cc(OC)c(OC)cc1CNC(=O)c1cccc(S(=O)(=O)N2CCc3ccccc3C2)c1
    -13.6%	-29.1%
- COc1ccccc1C(=O)NCc1ccncc1
    -8.4%	2.3%
- Cn1nccc1-c1ccc(C(=O)NCc2ccc(Cl)cc2)c2occc12
    -17.2%	-23.2%
- O=C(CCCC(=O)NN=Cc1ccccc1Cl)NN=Cc1ccccc1Cl
    -13.8%	-29.9%
- COc1cc(C2C(C(C)=O)=C(O)C(=O)N2CCN2CCOCC2)ccc1O (stereo not drawn)
    x	u
- CCCCN(C)C(=O)Cn1nc(-c2ccc(Cl)cc2)ccc1=O
    -2.6%	-3.9%
- Cc1ccc(NC(=O)N2CCc3ccccc3C2)c(C)c1
    i	-4.6%
- O=C(CN1CC(c2ccccc2)CC1=O)Nc1ccc(F)cc1 (stereo not drawn)
    9.2%	2.4%
- COc1ccc(N2CCN(C(CNC(=O)c3ccco3)c3ccco3)CC2)cc1 (stereo not drawn)
    -18.3%	-7.8%
- Cc1cc2cc(C(c3nnnn3Cc3ccco3)N3CCCCC3)c(=O)[nH]c2cc1C (stereo not drawn)
    i	-1.0%
- Cc1nnc(SCc2ccc(C(=O)c3ccc(Cl)cc3)o2)n1-c1ccccc1
    i	-8.3%
- CCCCN1C=C(C(=O)OC)C(c2ccccc2Cl)C(C(=O)OC)=C1
    i	-12.9%
- CCOC(=O)C1C(C)N=C2SCC(=O)N2C1c1cccc(Br)c1 (stereo not drawn)
    x	21.4%
- COc1ccccc1C(=O)NC(=O)COC(=O)c1cnc(C)cn1
    -10.7%	-14.0%
- Cc1ccc(-n2ncc(C#N)c2/N=C/N(C)C)cc1
    -9.9%	-7.0%
- COc1ccc(C2=Nc3ccccc3N(C(=O)c3ccncc3)C2C(=O)NC(C)(C)C)cc1 (stereo not drawn)
    -7.4%	-7.3%
- O=C1/C(=C/c2ccc3c(c2)OCO3)N2CCC1CC2
    -1.3%	-17.0%
- O=c1c2ccccc2nc(-c2ccco2)n1-c1ccc(Br)cc1
    -14.2%	-12.9%
- Cc1nc2cccnc2n1-c1cccc(C(=O)NCCc2ccc(S(N)(=O)=O)cc2)c1
    -12.6%[7.34 µM]	-2.7%[7.34 µM]
- Cn1c(=O)c(C(=O)CSc2ccccc2)c(N)n(Cc2ccccc2)c1=O
    -6.8%	-19.5%
- COc1cccc(-c2nc3cc4c(cc3cc2CN(C(=O)c2cccs2)C2CC2)CCC4)c1OC
    u	u
- Cc1ccc(C(=O)NCCOc2cccc(C)c2)cc1
    i	-7.7%
- CC(=O)N(c1ccc(C(F)(F)F)cc1)S(=O)(=O)c1ccc(N2C(=O)CCC2=O)cc1
    i	-10.0%
- COc1ccc(-c2nn(-c3ccccc3)cc2C(=O)Nc2ccccc2OC)cc1
    -8.5%	-14.2%
- CC(C)OC(=O)c1ccc(S(N)(=O)=O)o1
    -8.4%	-10.6%
- CCCc1cc(N2CCN(c3ccccc3F)CC2)n2cnnc2n1
    u	u
- CN(C)c1ccc(C=O)c(Cl)c1
    i	-16.7%
- CCOc1ccc(C(=O)Nc2c(C(=O)c3ccc(OC)cc3)oc3ccccc23)cc1
    -0.9%	0.6%
- CC(C)NC(=O)COc1coc(CN2CCN(Cc3ccccc3)CC2)cc1=O
    -13.4%	-11.8%
